Screening data from PubChem BioAssay.
DUX4 inh – blocks DUX4-driven transcriptional activation; 293T-iDUX4 ZSCAN4-Gaussia luciferase reporter, 24 h; active compounds read low; activity change, negative = inhibition, % (concentration not given with the values); 37,000 tested, 0.8% active;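 active means -10% or lower and over 25 points stronger than a control reporter; inconclusive means -10% or lower with a smaller gap; inactive means above -10%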;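 further: 0% = median of neutral control wells and -100% = median of positive control wells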
DUX4 inh difference – further read-out of DUX4 inh, marked with its call; Gaussia minus Italica difference, %; measured here: selective DUX4 reporter inhibition;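 worked out from the two reporters; negative = selective loss of the DUX4 reporter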
DUX4 inh control – recorded beside DUX4 inh, whose call it bears; activity change, negative = inhibition, %; measured here: Italica tet-on control reporter;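 0 = neutral control and -100 = positive control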
The depositor's hits bear a star; u = inconclusive; x = no result given. This is a subset; the hit share may differ from the screen's.

SMILES	DUX4 inh	DUX4 inh difference	DUX4 inh control
COC(=O)[C@H]1[C@H](CO)[C@H]2Cn3c(ccc(-c4ccccc4)c3=O)[C@@H]1N2CC1CCOCC1	1.0	0.5	0.5
O=C(Cc1ccccn1)N1CCCCN2[C@H](CO)[C@H](c3ccc(Br)cc3)[C@H]2C1	8.5	2.3	6.2
C/C=C/c1ccc(C2[C@@H]3CN(C(=O)c4cnccn4)C[C@H]2N3)cc1 (stereo not given in full)	5.4	-1.0	6.4
O=C(O)[C@H]1[C@H](CO)[C@H]2Cn3c(ccc(-c4ccccc4)c3=O)[C@@H]1N2C(=O)C1CCCCC1	7.3	7.5	-0.2
COC(=O)[C@H]1[C@H](CO)[C@H]2Cn3c(ccc(C4=CCCCC4)c3=O)[C@@H]1N2Cc1ccccn1	3.7	4.6	-0.9
CCC(=O)N1[C@@H]2Cn3c(ccc(C4=CCCC4)c3=O)[C@H]1[C@@H](C(=O)OC)[C@@H]2CO	5.5	-1.7	7.2
CCCN1[C@@H]2Cn3c(ccc(-c4ccccc4)c3=O)[C@H]1[C@@H](C(=O)OC)[C@@H]2CO	0.8	0.5	0.3
C/C=C/c1ccc([C@@H]2[C@@H](CO)N3CCCCN(C(=O)Cc4cccnc4)C[C@H]23)cc1	8.0	-2.5	10.4
CC=Cc1ccc2n(c1=O)C[C@@H]1[C@@H](CO)[C@H](C(=O)O)[C@H]2N1S(=O)(=O)c1ccccc1C (mixture of isomers)	1.2	2.5	-1.3
COC(=O)[C@H]1[C@H](CO)[C@H]2Cn3c(ccc(-c4ccccc4F)c3=O)[C@@H]1N2C(C)=O	-0.9	-7.3	6.4
C[C@H]1CN([C@@H](C)CO)C(=O)CCCn2nncc2CO[C@@H]1CN(C)C(=O)Oc1ccc2ccccc2c1	-1.0	1.2	-2.2
O=C(Cc1ccccn1)N1CCCCN2[C@@H](CO)[C@H](c3ccc(-c4ccccc4F)cc3)[C@@H]2C1	1.1	3.6	-2.5
O=C(Cc1ccccn1)N1CCCCN2[C@H](C1)[C@H](c1ccc(Br)cc1)[C@@H]2CO	4.8	2.5	2.3
COC(=O)[C@@H]1[C@@H](CO)[C@@H]2Cn3c(ccc(-c4cccc(OC)c4)c3=O)[C@H]1N2C(=O)c1cnccn1	-0.2	-4.3	4.0
Cc1cccc(S(=O)(=O)N2[C@@H]3Cn4c(ccc(-c5ccncc5)c4=O)[C@H]2[C@@H](C(=O)O)[C@@H]3CO)c1	2.2	-5.1	7.2
COC(=O)[C@H]1[C@H](CO)[C@H]2Cn3c(ccc(-c4ccc(OC)cc4)c3=O)[C@@H]1N2C(=O)c1ccccc1F	1.0	5.2	-4.2
C[C@@H]1CN([C@H](C)CO)C(=O)CCCn2nncc2CO[C@@H]1CN(C)C(=O)Oc1cccc2ccccc12	-4.2	-7.2	2.9
COc1cccc(-c2ccc3n(c2=O)C[C@H]2[C@H](CO)[C@@H](C(=O)O)[C@@H]3N2C(=O)c2cnccn2)c1	5.5	-7.0	12.6
Cc1ccc(OC(=O)N(C)C[C@@H]2OCc3cnnn3CCCC(=O)N([C@@H](C)CO)C[C@H]2C)cc1	-0.5	-4.2	3.7
C[C@@H]1CN([C@H](C)CO)C(=O)CCCn2cc(nn2)CO[C@@H]1CN(C)C(=O)Oc1cccc2ccccc12	-1.9	4.4	-6.3
O=C(Cc1ccccn1)N1CCCCN2[C@H](CO)[C@@H](c3ccc(-c4ccccc4)cc3)[C@H]2C1	18.0	14.3	3.6
CCC(=O)N1[C@@H]2c3ccc(-c4cccc(F)c4)c(=O)n3C[C@H]1[C@H](CO)[C@H]2C(=O)OC	-6.2	-5.3	-0.9
O=C(Cc1ccncc1)N1CCCCN2[C@H](CO)[C@H](c3ccc(-c4ccncc4)cc3)[C@@H]2C1	12.4	3.2	9.2
O=C(Cc1ccccc1)N1CC2(C1)[C@H](c1ccccc1)[C@@H](CO)N2Cc1cccc(F)c1	u	x	x
O=C(Cc1ccccc1)N1C[C@H]2[C@@H](c3ccccc31)[C@@H](CO)N2Cc1ccccc1	0.2	-2.4	2.5

The list goes on.
SMILES	DUX4 inh	DUX4 inh difference	DUX4 inh control
O=C(Cc1ccncc1)N1CCCCN2[C@@H](CO)[C@@H](c3ccc(C#Cc4ccccc4F)cc3)[C@@H]2C1	u	x	x
CN1c2ccc(Br)cc2[C@H]2NCC[C@H]2[C@H]1CO	8.8	8.1	0.7
O=C(O)[C@H]1[C@H](CO)[C@H]2Cn3c(ccc(-c4cccnc4)c3=O)[C@@H]1N2C(=O)Nc1cc(F)ccc1F	-0.1	2.7	-2.8
O=C(Cc1ccncc1)N1CCCCN2[C@H](CO)[C@@H](c3ccc(C#Cc4ccccc4F)cc3)[C@@H]2C1	u	x	x
COC(=O)[C@@H]1[C@@H](CO)[C@@H]2Cn3c(ccc(-c4ccccc4)c3=O)[C@H]1N2CC1CCCCC1	-7.4	-2.4	-5.1
CN1[C@@H]2Cn3c(cccc3=O)[C@H]1[C@@H](C(=O)NCC1CC1)[C@@H]2CO	-4.0	-6.7	2.7
O=C([C@H]1N[C@H]2c3cccc(=O)n3C[C@H]2[C@@H]1CO)N1CCCCC1	1.6	-6.1	7.7
C[C@@H]1CN([C@H](C)CO)C(=O)CCCn2nncc2CO[C@H]1CN(C)C(=O)Oc1cccc2ccccc12	4.2	7.1	-2.9
C/C=C/c1ccc(C2[C@@H]3CN(Cc4ccccn4)C[C@H]2N3)cc1 (stereo not given in full)	-1.7	-9.5	7.9
COC(=O)[C@H]1[C@H](CO)[C@H]2Cn3c(ccc(C4=CCCCC4)c3=O)[C@@H]1N2C(=O)NC(C)C	1.0	-0.2	1.1
Cc1ccccc1S(=O)(=O)N1[C@@H]2c3ccc(-c4cccnc4)c(=O)n3C[C@H]1[C@H](CO)[C@H]2C(=O)O	2.4	-1.1	3.5
COC(=O)[C@@H]1[C@@H](CO)[C@@H]2Cn3c(ccc(-c4ccc(F)cc4)c3=O)[C@H]1N2Cc1cccnc1	-7.0	-11.6	4.6
O=C(O)C[C@H]1CC[C@@H]2NC[C@H](O)COC[C@H]2O1	3.2	3.7	-0.5
O=C(Cc1ccccn1)N1CCCCN2[C@@H](CO)[C@H](c3ccc(Br)cc3)[C@@H]2C1	11.8	5.1	6.6
O=C(Cc1cccnc1)N1CCCCN2[C@@H](CO)[C@H](c3ccc(C#CC4(O)CCCC4)cc3)[C@@H]2C1	13.7	11.8	2.0
O=C(Cc1ccncc1)N1CCCCN2[C@H](C1)[C@@H](c1ccc(C#Cc3ccccc3F)cc1)[C@@H]2CO	u	x	x
O=C(Cc1ccccn1)N1CCCCN2[C@H](C1)[C@H](c1ccc(-c3ccccc3)cc1)[C@@H]2CO	-2.5	6.8	-9.3
O=C(O)[C@@H]1[C@@H](CO)[C@@H]2Cn3c(ccc(-c4ccccc4)c3=O)[C@H]1N2S(=O)(=O)c1ccccc1F	8.8	9.3	-0.5
COc1ccccc1CN1[C@H](CO)[C@H](c2ccccc2)C12CN(C(=O)Cc1ccccc1)C2	u	x	x
COC(=O)[C@H]1[C@H](CO)[C@H]2Cn3c(ccc(-c4ccccc4)c3=O)[C@@H]1N2CC1CCCCC1	u	x	x
Cc1ccc(OC(=O)N(C)C[C@H]2OCc3cnnn3CCCC(=O)N([C@@H](C)CO)C[C@H]2C)cc1	9.8	6.4	3.4
O=C(Cc1ccccn1)N1CCCCN2[C@H](C1)[C@@H](c1ccc(-c3ccccc3F)cc1)[C@@H]2CO	-7.8	-21.4	13.7
O=C(Cc1ccccn1)N1CCCCN2[C@H](C1)[C@H](c1ccc(-c3ccccc3F)cc1)[C@@H]2CO	-3.3	1.0	-4.4
O=C1CNC[C@@H]2[C@H](c3ccc(Br)cc3)[C@H](CO)N12	-4.2	-11.5	7.3
Cc1cccc(S(=O)(=O)N2[C@@H]3Cn4c(ccc(-c5ccccc5)c4=O)[C@H]2[C@@H](C(=O)O)[C@@H]3CO)c1	1.8	0.4	1.4

Additional results.
Results follow in this order: DUX4 inh	DUX4 inh difference	DUX4 inh control
C[C@@H]1CN([C@@H](C)CO)C(=O)CCCn2cc(nn2)CO[C@H]1CN(C)C(=O)Oc1cccc2ccccc12
    -2.3	1.1	-3.4
O=C(Cc1cccnc1)N1CCCCN2[C@H](C1)[C@H](c1ccc(C#CC3(O)CCCC3)cc1)[C@@H]2CO
    -5.9	-1.9	-4.0
COc1ccc(C#Cc2ccc([C@@H]3[C@@H](CO)N4CCCCN(C(=O)Cc5ccccc5)C[C@@H]34)cc2)cc1
    u	x	x
COc1ccc(C#Cc2ccc([C@@H]3[C@@H](CO)N4CCCCN(C(=O)Cc5ccccc5)C[C@H]34)cc2)cc1
    u	x	x
OC[C@H]1[C@@H]2c3ccccc3NC[C@@H]2N1Cc1cccnc1
    -0.9	-3.3	2.4
COC(=O)[C@@H]1[C@@H](CO)[C@@H]2Cn3c(ccc(-c4cccnc4)c3=O)[C@H]1N2S(=O)(=O)c1ccccc1C
    2.3	-1.2	3.4
O=C(O)[C@@H]1[C@@H](CO)[C@@H]2Cn3c(ccc(-c4ccc(F)cc4)c3=O)[C@H]1N2CC1CCCCC1
    6.2	-2.1	8.3
O=C(Cc1cccnc1)N1CCCCN2[C@H](CO)[C@H](c3ccc(C#CC4CCCC4)cc3)[C@H]2C1
    u	x	x
N#Cc1cccc(-c2ccc([C@@H]3[C@@H](CO)N4CCCCN(C(=O)Cc5cccnc5)C[C@@H]34)cc2)c1
    9.4	4.8	4.5
Cc1ccc(OC(=O)N(C)C[C@H]2OCc3cnnn3CCCC(=O)N([C@H](C)CO)C[C@H]2C)cc1
    0.7	1.2	-0.6
CN1[C@@H](CO)[C@@H]2c3ccccc3NC[C@@H]21
    -1.9	-0.5	-1.4
O=C(O)[C@H]1[C@H](CO)[C@H]2Cn3c(ccc(-c4ccc(F)cc4)c3=O)[C@@H]1N2CC1CCCCC1
    -4.4	0.9	-5.3
O=C(Cc1ccccc1)N1C[C@H]2[C@@H](c3ccccc31)[C@H](CO)N2Cc1ccccc1
    1.8	3.1	-1.3
O=C(Cc1ccccn1)N1CCCCN2[C@H](CO)[C@@H](c3ccc(Br)cc3)[C@@H]2C1
    7.5	0.3	7.2
COC(=O)[C@@H]1[C@@H](CO)[C@@H]2Cn3c(ccc(-c4ccccc4F)c3=O)[C@H]1N2
    -0.8	2.3	-3.1
COC(=O)[C@H]1[C@H](CO)[C@H]2Cn3c(ccc(-c4ccccc4)c3=O)[C@@H]1N2CC1CC1
    0.8	-1.2	2.0
CCCNC(=O)[C@@H]1[C@@H](CO)[C@@H]2Cn3c(cccc3=O)[C@@H]2N1CC
    2.2	-3.5	5.8
C/C=C/c1ccc([C@H]2[C@H](CO)N3CCCCN(C(=O)Cc4ccncc4)C[C@@H]23)cc1
    8.3	4.9	3.3
CCCN1[C@@H]2Cn3c(cccc3=O)[C@H]1[C@@H](C(=O)N(C)C)[C@@H]2CO
    -2.8	-2.5	-0.3
C[C@H]1CN([C@@H](C)CO)C(=O)CCCn2nncc2CO[C@@H]1CN(C)C(=O)Oc1cccc2ccccc12
    0.7	7.1	-6.4

Looked up by compound from the entries so far (two):
Results follow in this order: DUX4 inh	DUX4 inh difference	DUX4 inh control
Cc1ccc(OC(=O)N(C)C[C@H]2OCc3cnnn3CCCC(=O)N([C@H](C)CO)C[C@H]2C)cc1
    0.7	1.2	-0.6
COC(=O)[C@H]1[C@H](CO)[C@H]2Cn3c(ccc(-c4ccccc4)c3=O)[C@@H]1N2CC1CCOCC1
    1.0	0.5	0.5

Following part
Results follow in this order: DUX4 inh	DUX4 inh difference	DUX4 inh control
Cc1ccc(OC(=O)N(C)C[C@@H]2OCc3ccccc3-c3c(n(C)c4ccccc34)C(=O)N([C@@H](C)CO)C[C@H]2C)cc1
    2.9	1.6	1.3
C/C=C/c1ccc(C2[C@@H]3CN(S(C)(=O)=O)C[C@H]2N3)cc1 (stereo not given in full)
    -4.1	-22.7	18.6
O=C(Cc1ccccn1)N1CC2(C1)[C@H](c1ccccc1)[C@@H](CO)N2Cc1ccccn1
    -8.7	-13.6	4.9
COC(=O)C[C@@H]1CC[C@@H]2NC[C@H](O)COC[C@H]2O1
    7.8	1.2	6.7
COC(=O)[C@@H]1[C@@H](CO)[C@@H]2Cn3c(cccc3=O)[C@H]1N2CCc1ccccc1
    3.6	0.8	2.8
C[C@@H]1CN([C@@H](C)CO)C(=O)CCCn2nncc2CO[C@H]1CN(C)C(=O)Oc1cccc2ccccc12
    2.8	0.1	2.7
N#Cc1ccc(-c2ccc([C@@H]3[C@@H](CO)N4CCCCN(C(=O)Cc5ccccc5)C[C@H]34)cc2)cc1
    4.9	1.4	3.5
C/C=C/c1ccc(C2[C@@H]3CN(Cc4cncnc4)C[C@H]2N3)cc1 (stereo not given in full)
    8.4	-15.9	24.4
CCCN1[C@@H]2c3ccc(-c4ccc(OC)cc4)c(=O)n3C[C@H]1[C@H](CO)[C@H]2C(=O)OC
    -4.9	-4.4	-0.5
CCCN1[C@@H]2c3ccc(-c4cccc(OC)c4)c(=O)n3C[C@H]1[C@H](CO)[C@H]2C(=O)OC
    5.0	0.6	4.3
COc1ccc(C#Cc2ccc([C@H]3[C@H](CO)N4CCCCN(C(=O)Cc5cccnc5)C[C@@H]34)cc2)cc1
    u	x	x

Entries of single compounds, looked up by structure. Values in the order: DUX4 inh	DUX4 inh difference	DUX4 inh control
N#Cc1ccc(-c2ccc([C@@H]3[C@@H](CO)N4CCCCN(C(=O)Cc5ccccc5)C[C@H]34)cc2)cc1 is entered as 4.9	1.4	3.5
COc1ccc(C#Cc2ccc([C@H]3[C@H](CO)N4CCCCN(C(=O)Cc5cccnc5)C[C@@H]34)cc2)cc1 is entered as u	x	x
CCCN1[C@@H]2c3ccc(-c4cccc(OC)c4)c(=O)n3C[C@H]1[C@H](CO)[C@H]2C(=O)OC is entered as 5.0	0.6	4.3
